LASV entry inh: blocks Lassa virus binding to or entry into cells; Lassa virus pseudotype entry inhibition, cell reporter; control for the full effect not named in the record; Potency, µM (series often up to 37.9 µM), for inactives: at the top dose activity change, negative = inhibition, most hits filed as inhibitors; 300,000 tested, 1.2% active; AID 540256; active means well fitted inhibition curve with a large enough effect; inconclusive means small, poorly fitted or top-dose-only effect, or effect the other way; inactive means flat fitted curve, though single readings scatter; tested in HEK293 cells; also: % is scaled to controls: 0 for no effect and ±100 for the full control effect; nearly all actives have a fitted effect of over 50% in size; luciferase read-out
MARV entry inh: blocks Marburg virus binding to or entry into cells; Marburg virus pseudotyped entry inhibition, cell reporter; control for the full effect not named in the record; about a third of the inactives were read at about 46 µM; Potency, µM (doses to about 37.8 µM), inactives show at the top dose activity change, negative = inhibition, hits mostly inhibitors; 300,000 tested, 1.8% active; active = well fitted inhibition curve with a large enough effect; inconclusive = small, poorly fitted or top-dose-only effect, or effect the other way; inactive = flat fitted curve, though single readings scatter; tested in HEK293 cells; about a fifth of its hits are not listed in these tables; also: % is scaled to controls: 0 for no effect and ±100 for the full control effect; luciferase read-out
NS1 inh: blocks influenza NS1 protein function; Potency, µM (highest dose often 46.1 µM), for the others: at the top dose activity, positive = more growth; S. cerevisiae slowed by influenza A NS1, growth recovery by OD600; 270,000 tested, 0.4% active; AID 2326; active means well fitted rising curve with a large enough effect; inconclusive means small, poorly fitted or top-dose-only effect; inactive means no such curve, though single readings can be large or run the other way; also: nearly all actives have a fitted effect of over 50% in size
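In this qHTS, NS1 from influenza A is expressed in budding yeast, where it slows growth. Cells are switched from glucose to 2% galactose medium (pH 6.0, -URA), treated with compound, and growth recovery is read at OD600.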
Cruzain noTriton: inhibitors of Trypanosoma cruzi cruzain without detergent | purified cruzain, Z-FR-AMC fluorescence, no detergent | 200,000 tested, 2.3% active | P25779 | Potency, µM, for inactives: max response, negative = inhibition, actives largely listed as inhibitors | AID 1476;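 also: plate controls were enzyme without inhibitor for no effect and buffer without enzyme for full effect; nearly all actives have a fitted effect of over 40% in size; top concentration of the series not given in the record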
Target sequence (P25779 123-467 limits assumed): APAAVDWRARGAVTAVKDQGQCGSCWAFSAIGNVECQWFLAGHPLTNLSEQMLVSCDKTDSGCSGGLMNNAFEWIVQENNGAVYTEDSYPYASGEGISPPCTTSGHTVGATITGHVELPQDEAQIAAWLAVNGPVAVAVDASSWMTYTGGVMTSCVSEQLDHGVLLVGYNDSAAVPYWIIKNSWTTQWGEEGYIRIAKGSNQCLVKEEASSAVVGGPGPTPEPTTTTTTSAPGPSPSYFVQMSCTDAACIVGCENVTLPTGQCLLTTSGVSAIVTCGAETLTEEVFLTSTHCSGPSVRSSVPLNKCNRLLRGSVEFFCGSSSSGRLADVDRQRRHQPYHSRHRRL
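Purified cruzain at 1.5 nM, pre-incubated 15 min with compound at room temperature in 100 mM sodium acetate pH 5.5, 5 mM DTT, 0.00005% Triton X-100. Reaction started with 2 uM Z-FR-AMC; AMC fluorescence increase over 60 s gives rate.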
RE007 growth inh: less growth of the S. pombe RE007 Vpr strain. AID 651644. Potency, µM (titrated, usually from 92.2 µM), inactives show at the top dose activity change, negative = less growth. S. pombe RE007 Vpr strain, BacTiter-Glo ATP luminescence, 24 h; control for the full effect not named in the record. 360,000 tested, 0.21% active; active = well fitted falling curve with a large enough effect; inconclusive = small, poorly fitted or top-dose-only effect; inactive = no such curve, though single readings can be large or run the other way;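 also: % is scaled to controls: 0 for no effect and ±100 for the full control effect; nearly all actives have a fitted effect of over 50% in size; the assay follows cell death caused by Vpr and the record does not say whether a fall means rescue or toxicity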
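Fission yeast RE007 carrying one integrated HIV-1 vpr copy, seeded at OD 0.01 in PMG+AL medium with 23 nL pinned compound. Grown 24 h at 30 degrees; viability read by BacTiter-Glo luminescence after 5 min.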
Cruzain inh Det: cruzain (T. cruzi) inhibition with detergent. purified cruzain, Z-FR-AMC fluorescence, 0.01% Triton. Potency, µM, for the others: max response, negative = inhibition, most hits filed as inhibitors. P25779. 200,000 tested, 0.43% active;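 also: plate controls were neutral wells for no effect and buffer without enzyme for full effect; nearly all actives have a fitted effect of over 40% in size; top concentration of the series not given in the record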
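In this qHTS format, compounds are incubated with 1.5 nM cruzain for 15 min at room temperature before 2 uM Z-FR-AMC is added. Release of AMC is followed at 360/450 nm, and progress is taken as the 60 s fluorescence difference.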
StopGo reporter: lowers the luciferase signal of an FMDV 2A StopGo reporter; 410,000 tested, 1.2% active; human cells with a luciferase reporter of 2A StopGo recoding; control for the full effect not named in the record; AID 1159524; Potency, µM (titrated, usually from 57.9 µM), for inactives: top-dose signal change, negative = less light; active = well fitted falling curve with a large enough effect; inconclusive = small, poorly fitted or top-dose-only effect; inactive = no such curve, though single readings can be large or run the other way; tested in HEK293T cells; also: % is scaled to controls: 0 for no effect and ±100 for the full control effect; nearly all actives have a fitted effect of over 45% in size; luciferase light after 4 h
SARS PLpro yeast: SARS-CoV PLP inhibition in yeast; Potency, µM (doses to about 32.9 µM), without a hit: at the top dose activity, positive = growth rescue; AID 485353; S. cerevisiae expressing SARS-CoV PLpro, growth rescue; control for the full effect not named in the record; 330,000 tested, 0.19% active; active means well fitted rising curve with a large enough effect; inconclusive means small, poorly fitted or top-dose-only effect; inactive means no such curve, though single readings can be large or run the other way; also: 0% is about no effect; nearly all actives have a fitted effect of over 55% in size; growth read by luminescence after 48 h
* hit, by the source's call; ? = inconclusive; / = no result given; [ ] = dose if it differs, or a comment. Unless noted, calls follow the shape of the dose curve; as a rule, active = well fitted curve in the direction sought with a large enough effect; inconclusive = small, poorly fitted or top-dose-only effect, or another doubt; inactive = no such curve, though single readings can be large; an effect the other way counts as inactive or inconclusive. Potency is read from the fitted curve at half-maximal effect.

SMILES | LASV entry inh | MARV entry inh | NS1 inh | Cruzain noTriton | RE007 growth inh | Cruzain inh Det | StopGo reporter | SARS PLpro yeast
CC1=CC(C)(C)N(C(=O)CSc2nncn2C)c2ccccc21 | 1% | 16% | 7% | -20% | 1% | -0.1% | / | -14%
O=C(NCC1CCNCC1)c1ccncc1 | 0% | 1% | 2% | -4% | -1% | -0.7% | -6% | 1%
C=CCn1c(=O)n(CCC#N)c(=O)n(CCC#N)c1=O | 8% | 0% | -3% | 0% | -10% | 1.7% | 23% | 6%
CCC(C)(C)NC(=O)c1cc(S(=O)(=O)N2CCc3ccccc32)cn1C | / | / | 12% | / | 3% | / | ? | 1%
NC(=O)c1ccc(NC(=O)COC(=O)/C=C/c2ccc(Br)o2)cc1 | 8% | 24% | / | / | 18% | / | -7% | 3%
CN(Cc1ccccc1)S(=O)(=O)c1ccc2c(c1)OCCO2 | -13% | 4% | -14% | -10% | -17% | -1.5% | 15% | -7%
Cc1ccc(-c2nnc(N(C)C(=O)c3ccccn3)s2)cn1 | 21% | 6% | -9% | 10% | 13% | -2.9% | 35%[activator] | -2%
COc1cccc(C2/C(=C(/O)c3ccncc3)C(=O)C(=O)N2CCCN(C)C)c1 (stereo not given) | / | 0% | -3% | -4% | / | 3.8% | / | 0%
CNC(=S)NNC(=O)c1cc(C(C)(C)C)nn1Cc1ccc(F)cc1 | 11%[46.1 µM] | 1%[46.1 µM] | -1% | / | 5% | / | -7% | -1%
CCN(CC(=O)Nc1c(F)cccc1F)C(=O)/C=C/c1c(C)nn(-c2ccc(F)cc2)c1C | 9% | -1% | / | / | -1% | / | -23% | 1%
COc1cc(C(=O)Nc2ccc(S(=O)(=O)Nc3cc(C)on3)cc2)cc(OC)c1OC | -4% | 6% | 4% | -6% | 1% | -0.9% | 0% | -11%
CC1(C)CCc2nc(SCc3ccccc3)c(C#N)cc2C1 | -2% | ? | -2% | -8% | 0% | -6.4% | 0% | -25%
COC(=O)c1ccc(NC2=C(Cl)C(=O)OC2OC(=O)c2ccccc2)cc1 (stereo not given) | -3%[46.1 µM] | -14%[46.1 µM] | / | / | 2% | / | -9% | -5%
CC(C)(C)OC(=O)NCCCC[C@H](NC(=O)c1nc[nH]c1C(=O)NCc1ccccc1)C(=O)OC(C)(C)C | / | / | 11% | / | 0% | / | -27% | 0%
Cc1c(N=N/C(C(=O)Nc2ccccc2)=C(/O)c2ccccc2)c(=O)n(-c2ccccc2)n1C | -22% | ? | / | / | -20% | / | -22% | 2%
N#Cc1cc2cc3c(cc2nc1SCC(=O)N1CCOCC1)OCCO3 | ? | ? | 8% | / | -4% | / | ? | 2%
Cc1cc(Br)c2nc3c(c(C(=O)O)c2c1)CCCCC3 | 22% | 4% | -2% | -9% | 4% | -1.3% | -16% | 2%
N#C/C(=C\c1ccc([N+](=O)[O-])o1)C(=O)Nc1ccc(F)cc1 | -10% | ? | -65% | / | ? | / | ? | -5%
CCOC(=O)C1=C(COC(=O)CNC(=O)c2ccccc2F)NC(=O)NC1C (stereo not given) | 13% | 27% | / | / | -22% | / | ? | 2%
COc1ccc(-c2cc(CCCC(=O)NCCc3ccc(OC)cc3OC)no2)cc1 | -18% | 9% | -2% | 7% | -4% | 1.9% | -11% | 4%
Cc1cc(SCc2cccc(C(F)(F)F)c2)nc(=O)[nH]1 | / | / | 27% | / | 0% | / | 2% | 0%
COC(=O)CSc1ccccc1C(=O)OC | -16% | -4% | 1% | -7% | -5% | 3.4% | -9% | 0%
CCOCCn1ccc2c(OCC(=O)Nc3cc(C(F)(F)F)ccc3Cl)cccc2c1=O | 7%[46.1 µM] | / | / | -13% | / | 0.9% | -28% | /
Cc1ccsc1/C=C/C1=Cc2c(sc(NC(=O)CSc3n[nH]c(N)n3)c2C#N)C(C)(C)C1 | ? | ? | 23% | ? | -9% | -4.9% | ? | -2%
CN(C(=O)C12CC3CC(CC(C3)C1)C2)C1(C)CCS(=O)(=O)C1 (stereo not given) | -12% | 3% | -12% | 4% | 6% | 2.7% | 26% | /
O=C(NCC1CCCO1)C1CCCCN1S(=O)(=O)c1ccc(F)cc1 (stereo not given) | 16% | 3% | 1% | -12% | 3% | 4.4% | 7% | 20%
CCOC(=O)C1CCN(C(=O)c2cc3cc(F)ccc3[nH]2)CC1 | 8%[46.1 µM] | 21%[46.1 µM] | 2% | / | -3% | / | 6% | -2%
O=C(Nc1nc(-c2nc3ccccc3s2)cs1)c1ccc(S(=O)(=O)N2CCOCC2)cc1 | -80% | ? | -11% | -2% | -17% | 1.2% | ? | -4%
Cc1ccnc(NS(=O)(=O)c2ccc(NS(=O)(=O)c3cc(Cl)ccc3Cl)cc2)n1 | ? | -1%[46.1 µM] | 3% | / | 6% | / | 15% | 2%
Cc1cc(NN)nc2ccc(Cl)cc12 | -6%[46.1 µM] | ? | / | / | 2% | / | -9% | -1%
COc1ccc(NS(=O)(=O)c2cccc(C(=O)NN=Cc3ccc(O)c(OC)c3)c2)cc1 | 13% | 9% | / | / | 7% | / | -4% | 5%
CCOC(=O)c1[nH]c2c(c1-c1ccccc1)C(=O)CC(c1ccc(Cl)cc1)C2 (stereo not given) | 3% | 17% | 5% | -2% | -2% | -0.6% | -13% | 3%
Cc1ccc(C(=O)N2CCN(Cc3ccc4c(c3)OCO4)CC2)o1 | -15% | 4% | 1% | 0% | 6% | -3.4% | -1% | 3%
CC(C)(/C=N/O)/[N+]([O-])=C/C=[N+](\[O-])C(C)(C)/C=N/O | 0% | 1% | -11% | -7% | -1% | 1.6% | -7% | -1%
Cc1cc(C(=O)NCc2cccs2)no1 | 12% | 6% | -4% | 3% | 3% | -0.3% | 25% | 22%
COc1cc(C(=O)Oc2cccc(/C=N/NC(=O)c3cccnc3)c2)cc(OC)c1OC | -25% | ? | -10% | / | -8% | / | -14% | 0%
O=c1[nH]c(=O)c2nnc(N/N=C\c3ccc(O)cc3)nc2[nH]1 | 1% | ? | / | / | 1% | / | 16% | 3%
COc1ccc(C2/C=C\CN(Cc3ccco3)CC(=O)N2Cc2ccc(F)cc2)cc1 (stereo not given) | / | / | 8% | / | -1% | / | -20% | -2%
O=C(Nc1ccc([N+](=O)[O-])cc1)Nn1cnnc1 | / | / | 8% | / | -3% | / | -18% | -4%
COc1ccc(OC)c(NC(=O)c2sc3nc(C)cc(C)c3c2N)c1 | 4%[46.1 µM] | 2%[46.1 µM] | 15% | / | -6% | / | -2% | -3%
COC(=O)Cn1c(=NC(=O)c2ccc(S(=O)(=O)N3CCOCC3)cc2)sc2cc(S(N)(=O)=O)ccc21 | ? | ? | 5% | / | 3% | / | 7% | 0%
Cc1ccc(S(=O)(=O)N(C)CC(=O)OCC(=O)NC(=O)Nc2ccc3c(c2)OCCO3)cc1 | ? | ? | -10% | 5% | -11% | -8.1% | 66%[activator] | -5%
CCOC(=O)C/C(=N\Nc1ncnc2ccccc12)c1ccccc1 | -10%[46.1 µM] | ? | 7% | / | 2% | / | 6% | -2%
CCOc1ccc(NC(=O)CCC(=O)NNS(=O)(=O)c2ccccc2[N+](=O)[O-])cc1 | 5% | 5%[46.1 µM] | 0% | / | -8% | / | 0% | 0%
CCC(=O)N1CCCc2cc(S(=O)(=O)N3CCN(c4ccccc4F)CC3)ccc21 | / | / | -2% | ? | 1% | -3.4% | ? | -13%
CC(C)CC(NC(=O)C1CCC(C)CC1)C(=O)N1CCN(c2ccccn2)CC1 (stereo not given) | / | / | 5% | -18% | -17% | -8.5% | 31%[activator] | 0%
COc1cccc(CNS(=O)(=O)c2cc3c4c(c2)CCN4C(=O)CC3)c1 | -11% | 4% | / | / | 7% | / | 6% | -1%
CC1CCCC(C)N1C(=O)CNCc1ccc2c(c1)OCO2 (stereo not given) | / | / | 8% | / | -2% | / | -17% | 1%
CCC(C(=O)NCc1ccco1)N(C(=O)CNS(=O)(=O)c1ccccc1)c1ccccc1C (stereo not given) | -23% | -27%[46.1 µM] | -4% | / | 5% | / | 17% | 1%
COc1cc2c(cc1OC)C(c1ccc(Br)cc1)NC(=O)C2 (stereo not given) | / | / | 13% | / | 17% | / | -16% | 11%
CCCn1c(=O)c(C(=O)NCCCc2ccccc2)c(O)c2ccccc21 | / | / | 27% | / | 21% | / | -16% | 8%
N/C(Cn1cncn1)=N\NC(=O)c1ccc(Cl)cc1Cl | -5% | -20%[46.1 µM] | 5% | / | -4% | / | -16% | -2%
COc1cnc(-c2ccccn2)nc1Sc1ccccc1 | -20% | ? | / | / | -10% | / | 0% | ?
C=CCN1C(=O)C(O)(CC(=O)c2c(C)n[nH]c2C)c2cc(Br)ccc21 (stereo not given) | 1% | 15% | 8% | -9% | 3% | 0.5% | 44%[activator] | 6%
FC(F)(Cl)c1nnc2ccc(Cl)nn12 | -20%[46.1 µM] | ? | -2% | / | -7% | / | -12% | 0%
CC(C)CN1C(=O)NC(NC(=O)c2ccco2)(C(F)(F)F)C1=O (stereo not given) | ? | -4% | 8% | 3% | 7% | 3.6% | -1% | 0%
O=C(c1cc(-c2ccc(Cl)cc2)on1)N1CCCC1 | ? | ? | 7% | / | -6% | / | -15% | -4%
CC(=O)c1cccc(CN2CCCC(CCC(=O)NCc3ccc(C)o3)C2)c1 (stereo not given) | 4% | -4%[46.1 µM] | -4% | / | ? | / | 6% | 0%
NNC(=O)c1cnn(-c2ccccc2)c1C(F)(F)F | ? | 14% | / | / | 4% | / | -5% | -1%
COc1ccc(S(=O)(=O)N2CCC(C(=O)Oc3ccc(C)cc3)CC2)cc1OC | 6% | 21%[46.1 µM] | / | / | -16% | / | 13% | -2%
CC(=O)Nc1cccc2c1C(=O)N(c1cccc(C)c1)C2=O | -2% | 2% | 4% | -7% | -13% | -4.5% | -7% | 13%

Source: PubChem (National Center for Advancing Translational Sciences (NCATS))
